TRPML1 inh = blocks the human TRPML1 channel; Q9GZU1; TRPML1-inducible cells, Ca2+ dye fluorescence, FDSS; hits give low values; inhibition of EC80 agonist-evoked calcium signal; activity change, negative = inhibition, % (test concentration not listed); actives 0.02% (n = 390,000); in the data active means activity change below about -50%; inconclusive means about -30% to -50%; inactive means above about -30%;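 also: stimulus is agonist 54-4 at its EC80 concentration; % is scaled to controls: 0 for no effect and ±100 for the full control effect; compound concentration not given in the record; the text of the record puts the active cut at -80%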
Target sequence (Q9GZU1 whole entry, looked up): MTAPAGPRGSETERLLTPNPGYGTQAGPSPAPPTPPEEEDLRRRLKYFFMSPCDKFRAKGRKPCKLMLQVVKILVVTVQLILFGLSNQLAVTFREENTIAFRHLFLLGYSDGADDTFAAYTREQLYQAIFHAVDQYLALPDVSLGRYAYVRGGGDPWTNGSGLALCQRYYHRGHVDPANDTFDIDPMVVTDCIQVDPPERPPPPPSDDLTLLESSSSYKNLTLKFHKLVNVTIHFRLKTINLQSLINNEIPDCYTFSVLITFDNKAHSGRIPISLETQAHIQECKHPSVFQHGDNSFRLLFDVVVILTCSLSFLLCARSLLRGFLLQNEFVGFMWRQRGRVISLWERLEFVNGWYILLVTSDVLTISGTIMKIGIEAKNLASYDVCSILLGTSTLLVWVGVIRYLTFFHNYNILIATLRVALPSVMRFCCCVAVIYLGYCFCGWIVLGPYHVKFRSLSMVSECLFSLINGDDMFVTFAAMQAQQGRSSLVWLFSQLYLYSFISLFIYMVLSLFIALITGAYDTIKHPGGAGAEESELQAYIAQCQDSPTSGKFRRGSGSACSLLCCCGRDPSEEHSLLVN
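Tet-induced TRPML1-DL cells loaded with Ca8 no-wash calcium dye were read kinetically on FDSS. Compound addition was followed by EC80 agonist 54-4 (4 uM final); inhibition was read over 110 s.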
TRPML1 agonist = human mucolipin-1 channel agonism. activation, % (no concentration beside the values). TRPML1-expressing cells, Ca2+ dye fluorescence, FDSS; host cell line not named in the record; reference of the full effect not given here. actives 0.12% (n = 410,000). Q9GZU1; in the data active = activation above about 50%; inconclusive = about 30% to 50%; inactive = below about 30%; also: 0% is about no effect; the text of the record puts the active cut at 80%
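TRPML1-DL cells, Tet-induced overnight (~16 h, 37 degrees C), loaded 45-90 min at room temperature with Ca8 no-wash calcium dye plus quencher. FDSS fluorescence: 10 s baseline, compound pin-transfer, 110 s agonist read, then EC80 54-4 (4uM final) and 110 s antagonist read.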
CtBP-E1A blk = blocks the CtBP interaction with E1A. AID 651724. AlphaScreen GST-E1A/His-CtBP binding, 1536-well; hits give low values; control for the full effect not named in the record. actives 0.49% (n = 340,000). activity change, % (no concentration beside the values); in the data active means activity change below about -65%; inconclusive means about -30% to -65%; inactive means above about -30%; also: % is scaled to controls: 0 for no effect and ±100 for the full control effect; compound concentration not given in the record
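AlphaScreen with 125 nM GST-E1A and 125 nM His-CtBP (5X stocks) in Tris pH 8.0, 300 mM NaCl, BSA, Tween 20, TCEP. Compounds preincubated 2 h at 37 deg C, then glutathione donor/nickel acceptor beads added for 1 h at 37 deg C in dark.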
D2 ag = activates the human D2 dopamine receptor | P14416 | DiscoveRx PathHunter D2 beta-arrestin, luminescence, 90 min; 100% = 57 uM dopamine signal | activation, % (no concentration beside the values) | actives 0.084% (n = 360,000) | AID 624465; in the data active = activation above about 40%; inconclusive = about 15% to 40%; inactive = below about 15%; also: compound concentration not given in the record; the text of the record calls up to 30% inactive
Target sequence (P14416 whole entry, looked up): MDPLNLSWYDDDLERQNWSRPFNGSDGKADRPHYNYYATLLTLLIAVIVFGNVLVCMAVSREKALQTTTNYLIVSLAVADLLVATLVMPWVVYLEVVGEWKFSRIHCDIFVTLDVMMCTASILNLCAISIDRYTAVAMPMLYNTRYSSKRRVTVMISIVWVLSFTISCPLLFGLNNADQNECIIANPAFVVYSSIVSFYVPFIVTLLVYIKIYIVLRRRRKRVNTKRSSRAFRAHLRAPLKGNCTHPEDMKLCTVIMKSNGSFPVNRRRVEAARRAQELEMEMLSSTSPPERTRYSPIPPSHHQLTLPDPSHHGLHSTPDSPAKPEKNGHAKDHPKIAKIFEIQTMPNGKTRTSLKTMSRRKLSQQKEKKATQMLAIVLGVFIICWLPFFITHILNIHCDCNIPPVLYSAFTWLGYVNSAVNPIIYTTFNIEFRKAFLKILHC
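Agonist mode: compounds alone added to overnight-plated D2 PathHunter cells for 90 min at 37 C, with 57 uM final dopamine (EC100) defining full response. Beta-arrestin recruitment detected by chemiluminescent reagent, read after 1 h at ambient temperature.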
Six1-Eya2 inh = blocks human Six1 binding to Eya2; Q15475+O00167; AlphaScreen GST-Six1/His-Eya2 binding, biochemical; hits give low values; control for the full effect not named in the record; activity change, % (no concentration beside the values); actives 0.56% (n = 360,000); AID 651725; in the data active = activity change below about -65%; inconclusive = about -30% to -65%; inactive = above about -30%; also: % is scaled to controls: 0 for no effect and ±100 for the full control effect; compound concentration not given in the record
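AlphaScreen luminescence read after one hour at 37 °C in darkness. Pin-transferred compounds met GST-Six1 and His-Eya2 protein (5X stock 250 nM/500 nM) plus glutathione donor and Ni-chelate acceptor beads (5X, 50 ug/mL).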
PINK1 modulator = changes PINK1 expression; PINK1 immunofluorescence, high-content cytometry, 24 h; actives 0.2% (n = 410,000); Potency, µM (doses to about 76.6 µM), inactives show at the highest dose activation (PINK1 increase), hits mostly activators; active = well fitted activation curve with a large enough effect; inconclusive = small, poorly fitted or top-dose-only effect; inactive = flat fitted curve, though single readings scatter; cell line not stated here;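 also: potency is read from the fitted curve at half-maximal effect; % of control where 0% means no effect; nearly all actives have a fitted effect of over 65% in size; a mitochondrial uncoupler was the plate control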
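PINK1 protein, normally rapidly degraded, was detected by immunofluorescence after 24 hour compound treatment of a stable cell line. Titration data (5 concentrations) came from laser-scanning cytometry, with CCCP-treated wells as controls.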
* marks the source's active call; other numbers are inactive results; ? = inconclusive; . = no result given; [ ] = dose if it differs, or a comment.

The opening five records, ahead of the listing:
cpd | Molecule | TRPML1 inh | TRPML1 agonist | CtBP-E1A blk
1 | CCc1cccc(C)c1NS(=O)(=O)c1cc(Br)cnc1N | -3 | 0.9 | -11
2 | O=C(O)CC1(CC(=O)Nc2nccs2)CCCCC1 | 7 | 0.6 | -15
3 | CCOC(=O)CSC1=C(C#N)C(C)C2=C(CCCC2=O)N1 (stereo not drawn) | -24 | 0.7 | 3
4 | COc1ccccc1NC(=O)CN1CCC(c2nc3ccccc3[nH]2)CC1 | -2 | -0.9 | -9
5 | COc1ccc(-c2noc(-c3ccc(NCc4cccnc4)c([N+](=O)[O-])c3)n2)cc1 | 13 | -0.2 | .

cpd | D2 ag | Six1-Eya2 inh | PINK1 modulator
1 | 1.4 | 7 | 1.9%
2 | -5.8 | -3 | -5.1%
3 | -6.7 | 1 | -0.7%
4 | -3.7 | -13 | -1.4%
5 | . | . | 1.3%

All compounds of this part, repeating the preview:
cpd | Molecule | TRPML1 inh | TRPML1 agonist | CtBP-E1A blk
1 | CCc1cccc(C)c1NS(=O)(=O)c1cc(Br)cnc1N | -3 | 0.9 | -11
2 | O=C(O)CC1(CC(=O)Nc2nccs2)CCCCC1 | 7 | 0.6 | -15
3 | CCOC(=O)CSC1=C(C#N)C(C)C2=C(CCCC2=O)N1 (stereo not drawn) | -24 | 0.7 | 3
4 | COc1ccccc1NC(=O)CN1CCC(c2nc3ccccc3[nH]2)CC1 | -2 | -0.9 | -9
5 | COc1ccc(-c2noc(-c3ccc(NCc4cccnc4)c([N+](=O)[O-])c3)n2)cc1 | 13 | -0.2 | .
6 | Cc1ccc(CNC(=O)CSc2nc3[nH]ncc3c(=O)[nH]2)cc1 | -2 | -0.3 | 6
7 | CS(=O)(=O)c1cnc(-c2ccccc2)nc1Sc1ccc(F)cc1 | -8 | 0.6 | 8
8 | OCC1(Cc2ccc(Cl)cc2)CCN(Cc2ccc(Oc3ncccn3)cc2)CC1 | -6 | 0.0 | 1
9 | CCOc1ccc(-c2nnc3n2N=C(c2ccc(OC)cc2)CS3)cc1 | -10 | 1.5 | 1
10 | Cc1cc(=O)[nH]c(=O)n1Cc1ccccc1 | 7 | 0.0 | 3

cpd | D2 ag | Six1-Eya2 inh | PINK1 modulator
1 | 1.4 | 7 | 1.9%
2 | -5.8 | -3 | -5.1%
3 | -6.7 | 1 | -0.7%
4 | -3.7 | -13 | -1.4%
5 | . | . | 1.3%
6 | -1.7 | 0 | 5.2%
7 | -3.2 | -2 | ?
8 | -5.0 | 1 | -2.2%
9 | 1.4 | 3 | 6.5%
10 | 5.3 | 0 | -0.2%

(listing goes on)
cpd | Molecule | TRPML1 inh | TRPML1 agonist | CtBP-E1A blk
11 | CC1(C(=O)Nc2cccc(C(F)(F)F)c2)Cc2c(-c3ccccc3)ccnc2O1 (stereo not drawn) | 43 | 0.5 | 3
12 | COC(=O)CC1=Nc2ccccc2NC(=O)C1 | 32 | 0.1 | 0
13 | O=C(Cc1ccc(O)cc1)N/N=C/c1cccnc1 | 20 | 0.0 | -3
14 | COCC(C)n1c(SCC(=O)NCCC2=CCCCC2)nc2ccccc2c1=O (stereo not drawn) | -29 | 3.6 | 2
15 | Clc1ccc(-c2nc3ccncc3[nH]2)cc1 | -8 | -0.1 | 9
16 | Cc1ccc(-c2cc(-c3ccc(F)cc3)n[nH]2)c(O)c1 | 7 | 1.9 | 0
17 | O=C(Nc1ccccc1C(=O)OCc1cc(=O)n2c3c(sc2n1)CCCC3)c1ccc(Cl)cc1 | -18 | 2.7 | .
18 | CC(C)[C@H](NC(=O)Nc1ccc2c(c1)OCCO2)C(=O)O | -15 | 0.6 | 9
19 | CCOc1ccc(-c2nn(CC(=O)NC3CCCCC3)c3c2cnc2ccc(C)cc23)cc1 | 2 | 0.3 | .
20 | O=C(CCN1C(=O)/C(=C/c2ccccc2F)SC1=S)Nc1cccnc1 | -4 | -0.1 | -4

cpd | D2 ag | Six1-Eya2 inh | PINK1 modulator
11 | -1.5 | 6 | 6.7%
12 | -0.2 | 2 | -1.3%
13 | -2.4 | 0 | 0.0%
14 | 0.2 | 3 | -0.9%
15 | 1.7 | -15 | -2.1%
16 | 2.2 | -10 | 5.4%
17 | . | . | -0.5%
18 | -2.9 | 5 | 6.3%[38.3 µM]
19 | . | . | 1.3%
20 | -1.1 | 0 | -0.5%

Additional results:
cpd | Molecule | TRPML1 inh | TRPML1 agonist | CtBP-E1A blk
21 | O=C(CNC(=O)c1cccc(Br)c1)NCCc1nc2ccccc2[nH]1 | -11 | 1.0 | 5
22 | Cc1ccc(C2C(C#N)=C(N)Oc3cc(C)oc(=O)c32)o1 (stereo not drawn) | . | . | -1
23 | Cc1ccc(OCC(=O)O/N=C(\N)c2cccnc2)cc1 | -2 | 1.0 | 5
24 | COc1ccc(CCN2C(=O)CC(NC34CC5CC(CC(C5)C3)C4)C2=O)cc1OC (stereo not drawn) | -10 | 0.6 | 5
25 | COc1ccc(OCc2cc(C(=O)NC3CCOCC3)no2)c2ccccc12 | -15 | 1.2 | -3
26 | O=C(CC1(O)C(=O)N(CCc2ccccc2)c2ccc(Br)cc21)c1ccc(F)cc1 (stereo not drawn) | 23 | 1.9 | .
27 | COc1ccc(NCC(=O)Nc2cc(S(=O)(=O)N3CCOCC3)ccc2N2CCOCC2)c(OC)c1 | 3 | -0.6 | 2
28 | O=C(O)c1cccc(-c2csc(C(O)c3ccc(F)c(F)c3)n2)c1 (stereo not drawn) | . | -0.5 | 12
29 | COc1ccc(Cl)c(-c2cc(C(=O)Nc3ccccc3)[nH]n2)c1 | . | -0.4 | 4
30 | CN1CCN(C(=O)CC2(CC(=O)O)CCCC2)CC1 | 5 | 0.6 | -13

cpd | D2 ag | Six1-Eya2 inh | PINK1 modulator
21 | -4.7 | 5 | 3.8%[38.3 µM]
22 | -2.6 | 0 | 1.9%
23 | -1.4 | 12 | 0.7%
24 | 1.0 | 0 | 4.8%
25 | ? | -3 | 1.4%
26 | . | . | 11%
27 | -0.3 | -1 | 1.8%
28 | 4.7 | 3 | -0.9%
29 | -2.2 | -6 | 7.5%
30 | -4.2 | 16 | -1.2%

(continued)
cpd | Molecule | TRPML1 inh | TRPML1 agonist | CtBP-E1A blk
31 | COc1cc(Cl)c(C)cc1NC(=O)CN1CCN(C(=O)c2cccs2)CC1 | 23 | 0.2 | -11
32 | Cc1sc2ncn3c(C)nnc3c2c1C | 8 | 0.2 | -11
33 | O=C(NCC1CC1)Nc1ccccc1 | -4 | -0.7 | 10
34 | CCn1c(SCC(=O)Nc2cc(Cl)ccc2OC)nnc1C1CC1 | 16 | 1.0 | -6
35 | Fc1ccc(-c2nnc(N3CCOCC3)c3ccccc23)cc1F | -12 | -0.5 | 0
36 | O=C1CCC(C(=O)NC2(C(=O)NC3CCCCC3)CCCCC2)N1 (stereo not drawn) | 3 | -0.4 | 0
37 | Cc1ccc(NC(=O)Cn2c(C)cc(C)c(C#N)c2=O)cc1F | -12 | -0.9 | .
38 | CCN(CC)S(=O)(=O)c1ccc(NC(=O)COC(=O)c2cc(S(=O)(=O)Nc3ccc(OC)cc3)ccc2O)cc1 | -6 | 0.4 | 0
39 | CCOc1ccc(CCNC(=O)c2cc(-c3ccccc3)c(N3CCOCC3)s2)cc1OCC | -2 | 1.5 | .
40 | O=C(O)C1CCCCC1C(=O)Nc1ccc(Cl)cc1Cl (stereo not drawn) | 5 | 0.5 | 0

cpd | D2 ag | Six1-Eya2 inh | PINK1 modulator
31 | -1.0 | -20 | -1.0%
32 | -1.8 | -16 | 2.3%
33 | 0.6 | 8 | 3.8%
34 | -2.9 | -1 | -0.5%
35 | -3.7 | -6 | -1.2%
36 | -2.3 | 3 | 0.0%
37 | . | . | 1.6%
38 | -0.2 | 5 | 0.2%
39 | -3.7 | 11 | 1.5%
40 | -1.1 | 6 | 2.4%[38.3 µM]

The list continues.
cpd | Molecule | TRPML1 inh | TRPML1 agonist | CtBP-E1A blk
41 | CC1CCc2nc3ccc(S(=O)(=O)N4CCC(C(=O)NC(C)c5ccccc5)CC4)cc3c(C(=O)O)c2C1 (stereo not drawn) | -6 | -0.4 | -6
42 | Cc1cc(C(=O)N/N=C/c2cn[nH]c2-c2ccccc2)cs1 | -17 | 3.2 | -12
43 | COc1ccc(S(=O)(=O)N(C(=O)c2ccncc2)c2ccc(OC(=O)c3ccncc3)cc2)cc1 | 7 | 1.7 | -2
44 | Cc1ccc(/C=N/n2c(C)nnc2C)o1 | 26 | 0.1 | .
45 | S=C(c1ccc(-c2ccc(Cl)cc2Cl)o1)N1CCCCC1 | 6 | -1.0 | -29
46 | COc1ccc(C(C)=O)cc1CSC(=N)N | -4 | 0.1 | -6
47 | O=S1(=O)CC(N2CCN(CCO)CC2)CN1Cc1ccccc1 (stereo not drawn) | . | -0.1 | 0
48 | Cc1noc(C)c1COc1ccccc1C(=O)N(C)Cc1ccc(C(C)(C)C)cc1 | 13 | 2.2 | .
49 | COc1cc(OC)cc(C(=O)NNc2nc3cc4c(cc3s2)OCO4)c1 | -3 | 0.1 | 0
50 | CCOC(=O)c1cc2nc(-c3ccccc3)cc(C)n2n1 | 1 | -0.1 | -2

cpd | D2 ag | Six1-Eya2 inh | PINK1 modulator
41 | 0.4 | -22 | 0.3%
42 | -3.0 | -5 | -0.3%
43 | 4.1 | 7 | -2.1%
44 | -4.6 | -4 | -0.8%
45 | -5.7 | ? | 0.6%
46 | -7.0 | 2 | -0.4%
47 | -4.4 | 3 | -1.1%
48 | -0.4 | 3 | 2.4%
49 | 8.4 | -1 | -0.8%
50 | -2.5 | 0 | -1.6%

Next compounds:
cpd | Molecule | TRPML1 inh | TRPML1 agonist | CtBP-E1A blk
51 | O=C(CSc1nc(-c2cccc(Cl)c2)nc2cc(=O)[nH]n12)Nc1ccccc1 | -24 | 0.2 | .
52 | COc1cc(/C=C/C(=O)OCC(=O)NC2CC2)cc(S(=O)(=O)N2CCc3ccccc32)c1OC | 16 | -0.4 | -2
53 | Cc1cc(NC(=O)c2cccc(COc3ccc(Br)cc3)c2)no1 | -18 | -0.7 | 9
54 | N#Cc1nc(Cc2ccccc2)oc1N1CCN(c2ccccc2)CC1 | -5 | -0.2 | 9
55 | O=C(CSc1nnc(CNC(=O)c2c(F)cccc2Cl)o1)Nc1ccc2c(c1)OCO2 | -23 | 0.0 | -26
56 | Cc1ccc(C)c(NC(=O)CSc2nnc([C@@H](N)Cc3ccccc3)o2)c1 | -15 | -0.4 | 6
57 | CCc1ccc(OCc2ccc(C(=O)O)o2)cc1 | -14 | 1.6 | -13
58 | O=C(CP(=O)(c1ccccc1)c1ccccc1)N1CCOCC1 | -18 | 0.7 | 4

cpd | D2 ag | Six1-Eya2 inh | PINK1 modulator
51 | . | . | 0.3%
52 | -0.7 | -6 | -0.1%
53 | 2.3 | 2 | 14%
54 | -0.7 | ? | .
55 | 13 | 0 | -0.3%
56 | -2.3 | -1 | 8.8%[38.3 µM]
57 | -4.3 | 3 | 0.8%
58 | 5.7 | 9 | -2.7%

Assay outcomes as filed in PubChem.
